Mtb hypoxia rep: Mtb hypoxia fluorescent reporter inhibition; hit rate 0.1% among 300,000; M. tuberculosis hypoxia-regulated fluorescent reporter, fluorescence; fluorescence inhibition, % (no concentration beside the values); AID 1159583;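 active means 35 to 45% if threefold the growth effect, above 45% if 1.5-fold the growth effect; inactive means the rest, general growth blockers included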;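 further: wells of about 50 µL received 100 nL stock; 0% = vehicle wells and 100% = reference inhibitor wells; whole bacteria with a GFP reporter of the hypoxia response; strong numbers were not always called active; many hits fall short of the cut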
BJeLR viability: kills HRASV12-expressing BJeLR cells; BJeLR (HRASV12) viability, CellTiter-Glo ATP luminescence, 48 h; reference of the scale not given here; inhibition, % (test concentration not listed); hit rate 0.17% among 300,000; AID 1554;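 active means replicate mean above 50%; inconclusive means above 50% but judged a plate artefact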;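 further: 50 nL library stock added to about 25 µL; numbers are from one replicate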
PrP 5UTR inh: inhibition of PrP 5' UTR reporter expression; cell-based PrP 5' UTR mRNA reporter, plate reader; inhibition, % (no concentration beside the values); hit rate 0.35% among 340,000; AID 488862;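 active means every replicate at 50% or more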;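 further: 0 = median of the neutral control wells; tested in H4 reporter cells; numbers are from one replicate; inactives centre near -14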
Sa ugtP lethal: growth inhibition of S. aureus ugtP deletion strain; S. aureus RN4220 ugtP deletion, OD600 growth, 16 h; some inactives read as strong as hits; growth inhibition, % (no concentration beside the values); hit rate 0.54% among 330,000;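 active means z-score under -3 and OD600 up to 0.15 on both plates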;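 further: plate controls were untreated wells for no effect and antibiotic for full effect; wells of about 80 µL received 100 nL stock; the first replicate is given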
RN4220 kill: S. aureus RN4220 growth inhibition; OD600, 16 h; inhibition, % (concentration not given with the values); hit rate 0.33% among 330,000; AID 1259311;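 active means z-score of -3 or lower and OD600 up to 0.18 on both plates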;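 further: plate controls were untreated cells for no effect and reference antibiotic for full effect; stock transfer was 100 nL into about 80 µL; one replicate is shown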
Autofluor counter: compound fluorescence in toxin protease inhibitor counterscreen; hit rate 3.1% among 360,000; fluorescence intensity (no concentration beside the values); compound autofluorescence counterscreen, microsphere flow cytometry; stronger effect = higher value;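 active means at least 3 SD above the mean of all compounds, about 16000 in these data; inconclusive means too few beads counted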;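 further: 100 nL of 1 mM stock went into each well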
Mtb hypoxia rep growth: recorded beside Mtb hypoxia rep, whose call it bears; growth inhibition, %; measured here: M. tuberculosis growth (absorbance);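 0% = vehicle and 100% = reference antibiotic; read after six days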
The depositor's hits bear a star; u = inconclusive; x = no result given.

SMILES	Mtb hypoxia rep	Mtb hypoxia rep growth	BJeLR viability	PrP 5UTR inh	Sa ugtP lethal	RN4220 kill	Autofluor counter
COc1ccc(/C=C/C(=O)NCCc2ccc(OC)c(OC)c2)cc1	x	x	-27	-29	x	x	9499
COc1ccc(NC(=O)c2ccc([N+](=O)[O-])o2)cc1	x	x	6	-22	60	14	3101
CCN(CC)S(=O)(=O)c1ccc(C(=O)OCn2c(SC)nnc(C)c2=O)cc1	-3	0	4	-29	5	1.4	10394
O=C(NNC(=O)c1ccc2ccccc2c1)c1ccc(Cl)c(Cl)c1	11	7	x	-28	0	1.9	3759
COCCOC(=O)c1c(C)oc2cc(Br)c(OCC(N)=O)cc12	7	9	0	-5	-4	-0.2	2531
CC(C)c1ccc(-c2nnn(Cc3nc4ccccc4s3)n2)cc1	-2	0	-2	-11	85*	1.1	16755*
CC(C(=O)NCc1ccccc1)C1C[C@@]1(C)C(NC(=O)OCc1ccccc1)c1ccccc1 (some centres not stated)	-7	0	x	x	-1	-7.8	x
Cc1nc2ccccc2c2c1C(=O)N(C(C)C)C2=O	7	4	15	-16	4	2.7	8082
Cc1cc(C)cc(NC(=O)C(c2ccccc2)N2CCCC2)c1 (configuration not stated)	0	-1	-3	-2	2	3.6	2507
CN(C)c1ccc(/C=N/n2c(-c3ccccc3Br)n[nH]c2=S)cc1	x	x	-9	-6	x	x	4041
O=C(C=Cc1ccc2c(c1)OCO2)c1ccccc1	x	x	x	-72	0	10	3986
Cc1ccc(OCC(=O)N2CCN(S(=O)(=O)c3ccc(Cl)cc3)CC2)c([N+](=O)[O-])n1	3	4	-3	-3	10	6.1	2498
O=C(Nc1cccnc1)c1ccc(Oc2ccccc2)cc1	6	1	-4	-62	16	2.0	4314
O=c1[nH]c(-c2ccc(F)cc2)nc2c1sc(=S)n2-c1ccccc1	4	-6	-2	-10	44	33	2682
O=C1NC(=S)NC1=Cc1cccn1-c1ccc([N+](=O)[O-])cc1	4	10	x	x	-1	0.9	x
O=S(=O)(c1ccccc1)N1CCN(c2ccnc3cc(Cl)ccc23)CC1	3	3	2	-30	4	-2.6	3559
CCOC(=O)C1=C(C)N=c2sc(=Cc3ccc(OCC(=O)O)cc3)c(=O)n2C1c1ccccc1OC (configuration not stated)	-1	-14	x	x	-2	2.2	x
CN1CCN(C(=O)c2cc(COc3ccc(F)cc3Cl)on2)CC1c1ccccc1 (configuration not stated)	9	5	1	-14	6	3.7	4195
Cc1ccc(C)c(-n2cc(CNC(C)Cn3cncn3)c(-c3ccccc3)n2)c1 (configuration not stated)	-2	4	4	-16	14	1.9	4684
O=C(O)c1ccccc1C(=O)N1CCN(S(=O)(=O)c2cccc(C(F)(F)F)c2)CC1	8	6	x	-13	8	6.0	4372

A section of the results above:
SMILES	Mtb hypoxia rep	Mtb hypoxia rep growth	BJeLR viability	PrP 5UTR inh	Sa ugtP lethal	RN4220 kill	Autofluor counter
Cc1ccc(C)c(-n2cc(CNC(C)Cn3cncn3)c(-c3ccccc3)n2)c1 (configuration not stated)	-2	4	4	-16	14	1.9	4684
O=C(O)c1ccccc1C(=O)N1CCN(S(=O)(=O)c2cccc(C(F)(F)F)c2)CC1	8	6	x	-13	8	6.0	4372

Continued:
SMILES	Mtb hypoxia rep	Mtb hypoxia rep growth	BJeLR viability	PrP 5UTR inh	Sa ugtP lethal	RN4220 kill	Autofluor counter
COC(=O)CN1C(=O)N/C(=C/c2cc(Cl)c(OC)c(OC)c2)C1=O	13	7	-6	-8	-61	2.3	3236
Cc1cccc(OCCC(=O)Nc2ccc(N3CCOCC3)cc2N2CCOCC2)c1	5	2	x	-61	2	4.9	3949
O=C(NCc1ccccn1)c1cc(-c2ccccc2)on1	6	8	3	-44	-1	2.8	10813
Cc1ncc([N+](=O)[O-])n1CCOC(=O)c1ccccc1	2	-6	-7	-10	1	-0.2	2386
O=C(Nc1nc(-c2ccccn2)cs1)C1COc2ccccc2O1 (configuration not stated)	-6	5	x	0	16	19	5820
COc1ccc(-c2noc(CCC(=O)N3CCC(C)CC3)n2)cc1	2	-3	-8	-34	15	3.2	7603
Nn1cnnc1NN=Cc1ccc(Cl)c([N+](=O)[O-])c1	-1	-5	x	x	7	0.0	x
CCNC(=O)CC1C(=O)N(c2ccc(F)cc2)C(=O)N1CCc1sccc1C (configuration not stated)	8	-5	4	-9	4	5.8	2202
O=C(CSc1nc2ccccc2c(=O)n1CCCN1CCOCC1)Nc1cccc(S(=O)(=O)N2CCCCCC2)c1	7	8	-2	-13	-3	5.6	2191
Clc1ccc2oc(-c3ccccn3)nc2c1	x	x	-4	-114	3	2.9	4899
O=C(NC(=S)N1CCN(C2CCCCC2)CC1)c1ccccc1	11	4	-5	-19	3	3.9	3522
COc1ccccc1OCC#CCN1CCOCC1	-6	2	3	-8	-11	4.2	4354
Cc1onc(-c2ccccc2Cl)c1C(=O)OCC(=O)c1ccc[nH]1	-2	6	2	-6	-2	2.6	4519
CCc1nc(SC)[nH]c(=O)c1C	8	6	-1	-11	2	3.1	3904
CCN1CCN(C(=O)/C=C/c2ccc(C)cc2)CC1	3	1	-5	-30	5	5.0	5950
C/C(CCC1CC(C)OC1=O)=N\NC(N)=S (configuration not stated)	x	x	0	-28	x	x	3314
COc1cc2cc(C(=O)O)[nH]c2c(OC)c1OC	-7	2	-8	7	-3	-0.2	10603
COc1cc2[nH]c(C(=O)N3CCN(C)CC3)cc2c(OC)c1OC	-3	3	-6	-7	1	2.3	4059
COc1ccc(N2C(=O)CC(Sc3n[nH]c(-c4ccccc4)n3)C2=O)cc1 (configuration not stated)	11	10	0	-25	13	16	4670
CC(=O)N1CCN(C(=O)CNC(=O)c2cccs2)CC1	13	14	x	5	6	4.2	u
CCN(CC)CCSc1nc(O)c(Cc2ccccc2)c(=O)n1-c1ccccc1	5	6	3	-24	-3	5.0	4077
Cc1cccc(C)c1NCC(=O)N1CCN(Cc2ccccc2)CC1	2	0	-1	-4	0	3.3	3689
Cc1ccc(Cl)cc1N1CCN(S(=O)(=O)c2c(C)[nH]c(C)c2C(=O)N2CCCCC2)CC1	-3	-2	-9	-22	-6	2.9	5336
COc1cc(C(=O)N(Cc2cccc(Cl)c2)C2CCS(=O)(=O)C2)cc(OC)c1OC (configuration not stated)	10	12	0	-31	2	6.8	8102
COc1ccc(-c2nc(CCNC(=O)c3cccs3)cs2)cc1	1	14	-5	-42	-2	-4.4	5762
COc1ccccc1C1(O)CCN(C(=O)c2cccs2)CC1	-2	7	-2	1	-6	-7.7	2548
O=C(CCc1ccccc1)Nc1sc2c(c1C(=O)O)CCCC2	1	3	-1	x	-14	6.8	5324
CC(=NNC(=O)c1ccccc1C)c1cccc([N+](=O)[O-])c1	20	6	x	x	10	4.1	x
CC1CC(OCC(O)CN2CCOCC2)CC(C)(C)C1 (configuration not stated)	x	x	2	-1	x	x	7762
CC(/C=N/NC(=O)CN1CCN(Cc2ccc(Cl)cc2)CC1)=C\c1ccco1	x	x	11	-28	x	x	2059
C#CCNC(=O)C1=C[C@H](c2ccc(Br)cc2)C[C@H](OCc2ccc(CO)cc2)O1	x	x	-7	-25	x	x	3458
COCCn1nnnc1CN1CCC(C)CC1	x	x	1	-20	-1	0.6	3556
CC1CCCCN1S(=O)(=O)c1ccc([N+](=O)[O-])cc1 (configuration not stated)	6	2	3	-8	-5	6.8	3569
O=C(Nc1ccc2c(c1)OCO2)c1ccc(Cl)c(S(=O)(=O)N2CCOCC2)c1	6	6	3	-34	-1	-1.4	5156
O=C(CC1Sc2ccccc2NC1=O)NNc1ccc(Cl)c(Cl)c1 (configuration not stated)	5	6	x	-10	-20	-13	3813
COCCn1c(SCc2ccc(C)cc2)nc2c1c(=O)[nH]c(=O)n2C	4	-2	0	x	12	1.5	3535
CCOC(=O)N1CCC(N2C(=O)c3ccccc3C2Nc2c(C)cccc2C)CC1 (configuration not stated)	-1	-3	0	-4	1	2.2	5022
CC(C)C(NC(=O)c1ccco1)C(=O)NC1CCCCCC1 (configuration not stated)	-1	6	-3	-20	-3	-1.7	5768
COc1ccc(NC(=O)CN(Cc2ccccc2)S(C)(=O)=O)cc1OC	11	7	-1	-2	-3	1.0	2133
Nc1cccc(C(=O)c2ccccc2C(=O)O)c1	8	15	x	-5	-1	-0.7	3626
Cc1cc(C)cc(NC(=O)C(=O)NCCCN2CCOCC2)c1	-12	-3	-12	-23	7	2.3	4756
Cc1cccc(NC(=S)N(CCN(C)C)C(C)c2ccccn2)c1 (configuration not stated)	7	11	19	6	1	3.6	22805*
CCc1ccccc1NS(=O)(=O)c1ccc2c(c1)NC(=O)CC(=O)N2	11	4	-2	-11	9	4.3	2564
COc1ccccc1N1CCN(C(=O)CSc2nc(C)cc(=O)[nH]2)CC1	11	-2	-1	-6	4	0.9	17183*
Cc1ccccc1S(=O)(=O)N1C(c2ccc(Cl)cc2)CC=C(C(=O)O)C1c1ccccc1 (configuration not stated)	-1	2	x	x	33	23	x
COc1ccc(CCNC(=O)CCC(=O)N2CC(C)Oc3ccccc32)cc1OC (configuration not stated)	6	6	3	-1	8	-2.4	5019
O=C(Nc1cc(Cl)cc(Cl)c1)N1CCN(C(=O)C2CCCO2)CC1 (configuration not stated)	9	-6	14	2	5	-0.1	4270
Cc1ccc(S(=O)(=O)Nc2ccccc2N(C)S(=O)(=O)c2ccc(C)cc2)cc1	0	10	7	-5	-11	-7.5	4076
CSCCC(NS(=O)(=O)c1ccc2c(c1)c(=O)n(C)c(=O)n2C)C(=O)NC1CCN(Cc2ccccc2)CC1 (configuration not stated)	1	4	6	-4	-1	-1.4	4159
CCCC12CN3CCN(CC(C3)/C1=N\NC(=O)c1ccccc1Cl)C2	x	x	-3	-17	x	x	4397
CCn1cc(C(=O)NC2CCCCC2)c(=O)c2cc(S(=O)(=O)N(C)C)ccc21	x	x	-3	1	-1	4.8	6028
Cc1cc(F)ccc1NC(=O)C1CCN(S(=O)(=O)c2ccc3c(c2)CCCC(=O)N3)CC1	0	-1	-9	-18	8	-2.4	5500
CN(C)CCc1c[nH]c2ccc(Cn3cncn3)cc12	-2	1	1	x	3	5.7	x
CCN(CC)c1ccc(/C=N/n2c(=S)[nH]nc(C)c2=O)cc1	x	x	-8	-22	x	x	2908
Cc1ccc(S(=O)(=O)Nc2cc(S(=O)(=O)N3CCOCC3)ccc2NCC2CCCO2)cc1 (configuration not stated)	-2	-4	x	-26	3	5.9	x
CC(=O)OCC1=C(C(=O)O)N2C(=O)C(NC(=O)COc3ccc(F)cc3)C2SC1 (configuration not stated)	37*	23*	x	-43	101*	100*	4794
O=C(Nc1ccc(Cl)cc1C(=O)c1ccccc1)c1ccccc1	x	x	5	-38	31	2.7	2731
O=C(NN=Cc1ccco1)C1CC(=O)N(c2ccccc2)C1 (configuration not stated)	8	-1	x	x	7	0.4	x
O=C1CCCc2c1nn(-c1ccccc1)[n+]2[O-]	6	9	-1	-9	4	4.4	18962*
CCCS(=O)(=O)c1c(S(=O)(=O)CCC)c2c(N)cccn2c1C(=O)c1ccccc1	12	0	1	-24	0	-1.1	16615*

Single records, from the list above. Screens in order: Mtb hypoxia rep | Mtb hypoxia rep growth | BJeLR viability | PrP 5UTR inh | Sa ugtP lethal | RN4220 kill | Autofluor counter
COc1ccc(CCNC(=O)CCC(=O)N2CC(C)Oc3ccccc32)cc1OC (configuration not stated) is listed as 6 | 6 | 3 | -1 | 8 | -2.4 | 5019
O=C(NN=Cc1ccco1)C1CC(=O)N(c2ccccc2)C1 (configuration not stated) is listed as 8 | -1 | x | x | 7 | 0.4 | x
CCc1ccccc1NS(=O)(=O)c1ccc2c(c1)NC(=O)CC(=O)N2 is listed as 11 | 4 | -2 | -11 | 9 | 4.3 | 2564
CCCC12CN3CCN(CC(C3)/C1=N\NC(=O)c1ccccc1Cl)C2 is listed as x | x | -3 | -17 | x | x | 4397

Following part
SMILES	Mtb hypoxia rep	Mtb hypoxia rep growth	BJeLR viability	PrP 5UTR inh	Sa ugtP lethal	RN4220 kill	Autofluor counter
CCOC(=O)c1c(S(=O)(=O)NCC(=O)Nc2cccc(C)c2)c(C)n(C)c1C	2	6	5	-10	7	0.0	5126
O=C(O)c1cccc(NC(=O)c2cn(-c3ccccc3)nc2-c2ccc([N+](=O)[O-])cc2)c1	-8	9	-2	-8	1	1.1	3045
COc1ccc(OCCOC(=O)CNC(=O)c2ccc(C)cc2)cc1	-4	-1	6	-3	4	-1.7	x
CCOC(=O)c1sc(NC(=O)/C=C/c2cnn(C)c2C)c(C(=O)OC(C)C)c1C	-3	2	-12	x	-33	2.7	11008
CC(=O)NC(C)C(=O)OCc1ccc(Cl)cc1Cl (configuration not stated)	5	7	-9	-17	-5	-9.8	2919

Screens deposited in PubChem by several laboratories.
